# Screening results as filed in PubChem.
# MgrA-DNA mod: modulators of Staphylococcus aureus MgrA DNA binding | fluorescence polarization | inhibition, %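 (about 10 µg/mL by stock and volumes)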 | 0.13% of 84,000 active | AID 602314;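 active = above 50% in either of two replicates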;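 also: 0% = protein plus DNA without compound and 100% = DNA alone without protein; higher means less MgrA bound to DNA so lower polarization; one replicate is shown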
# S aureus helic: S. aureus DNA helicase inhibition | purified S. aureus helicase, fluorescence unwinding assay; about half of the hits fall short of the stated cut | inhibition, %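 (tested at about 80 µM)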 | 0.05% of 120,000 active | AID 485395;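 active = both duplicates at 50% or more, or one of them with a favoured structure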;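 also: 0% = mean of negative control wells and 100% = mean of positive control wells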
# * hit, by the source's call; . = not tested or not shown. Not all compounds are listed; the hit share may differ from the screen's.
S aureus helic,MgrA-DNA mod,molecule
-6,.,O=C(OCC(=O)N1CCCC1=O)c1ccc(-c2ccc(O)cc2)cc1
10,5.2,CCOC(=O)c1c(-c2ccc(C)o2)csc1NC(=S)NC(=O)N(C)C
9,0.9,COc1ccccc1-n1cc(C(=O)NCC(=O)NCC2COc3ccccc3O2)c2ccccc2c1=O (stereo not given)
21,0.0,Cn1c(N)c(C#N)c2c(c1=S)CCCC2
.,4.0,O=C(Nc1cnccn1)c1ccc(Cl)cc1
.,-1.4,CCCS(=O)(=O)c1c(C)c(C)n(Cc2cccc(Cl)c2)c1N
17,4.0,O=C1c2ccc(-c3nc4ccccc4c(=O)o3)cc2C(=O)N1CC1CCCO1 (stereo not given)
-19,1.9,CCS(=O)(=O)Nc1cc(OC)c(OC)c(OC)c1
1,0.1,N#Cc1c(N)n(CCc2ccccc2)c2nc3ccccc3nc12
.,0.8,COc1ccccc1CC(=O)NCc1ccc(-c2cccs2)cc1
18,.,CCC(CC)c1nc2cc(OC)c(OC)cc2c(=O)o1
.,-1.8,CCOC(=O)c1ccc(N=C(N)SCc2ccc(Cl)cc2)cc1
.,-1.7,N#CCC(=O)c1cccc(Cl)c1
4,.,CCc1ccc(CN(C)CCc2ccccn2)cc1
13,0.6,O=C1c2ccccc2C(=O)N1CCc1ccccc1
0,.,COc1ccc(C(=O)NCCc2cn3ccccc3n2)cc1
.,2.2,O=C(CSCC(=O)c1ccc(Br)cc1)c1ccc(Br)cc1
3,.,CSc1nncn1/N=C/c1ccc(Br)cc1
.,-9.9,CCOC(=O)C1=C(C)N=c2s/c(=C/c3ccc(N(C)C)cc3)c(=O)n2C1c1ccc(OC(C)=O)cc1 (stereo not given)
10,3.5,O=C1N=C(c2ccccc2)S/C1=C\c1cccs1
11,-6.2,CC(=O)Oc1ccc2occ(C(=O)CCN(C)C)c2c1
-5,4.5,COC(=O)CN(C)S(=O)(=O)c1ccc(Br)cc1
9,.,CC(Sc1nnc2c(Cl)cc(Cl)cn12)C(=O)NCc1ccco1 (stereo not given)
4,.,C=CCn1c(C)csc1=Nc1ccc(C(=O)OCC)cc1
-13,.,O=C(Nc1nc2c(ccc3ccccc32)s1)C1CC1

# The closing four records of the section before are carried over, then new ones follow.
S aureus helic,MgrA-DNA mod,molecule
-5,4.5,COC(=O)CN(C)S(=O)(=O)c1ccc(Br)cc1
9,.,CC(Sc1nnc2c(Cl)cc(Cl)cn12)C(=O)NCc1ccco1 (stereo not given)
4,.,C=CCn1c(C)csc1=Nc1ccc(C(=O)OCC)cc1
-13,.,O=C(Nc1nc2c(ccc3ccccc32)s1)C1CC1
9,0.2,COc1ccc(CCNC(=O)C2(C)CCC(=O)N2CCC(C)C)cc1OC (stereo not given)
0,.,Cc1ccc(NC(=O)c2cc(C)oc2C)c(Br)c1
-16,.,CCC(=O)NCCc1nc2ccccc2n1CC
7,-2.4,CCOC(=O)CN1C(=O)S/C(=C\c2ccccc2OCc2ccccc2F)C1=O
-15,.,O=C1CN(C(=O)CSC2=Nc3ccccc3CS2)c2ccccc2N1
-1,0.3,CC1(NC(=S)Nc2ccc(O)cc2)CCS(=O)(=O)C1 (stereo not given)
-16,.,Cc1c(CCC(=O)NCc2ccc3c(c2)OCO3)c(=O)oc2cc3occ(C(C)(C)C)c3cc12
16,2.3,COc1ccc(-c2nnc3c4ccccc4c(C)nn23)cc1S(=O)(=O)NC(C)(C)C
13,13,CCc1ccc(S(=O)(=O)c2cn(CC)c3ccccc3c2=O)cc1
.,-1.0,CSCC(CSC)OC(=O)c1c(-c2c(Cl)cccc2Cl)noc1C
1,.,S=C(Nc1ccccc1)N1CCn2cccc2C1c1cccnc1 (stereo not given)
-20,.,O=C1c2cccnc2C(=O)N1Cc1ccc(F)cc1S(=O)(=O)N1CCCC1
10,.,Cc1ccc(NC(=O)C(CC(C)C)NS(=O)(=O)c2ccc3c(c2)CCCC(=O)N3)cc1 (stereo not given)
14,0.6,CCCNC(=O)Cn1c(=O)oc2cc(S(=O)(=O)N3CCCC3)ccc21
-4,1.2,COc1cc(CN(C(=O)/C(=C/c2cccnc2)NC(=O)c2ccccc2)C2CCCCC2)ccc1O
5,-1.9,CC(C)/C(N)=N/OC(=O)c1ccc(I)cc1
-1,.,COCCn1c(SCC(=O)c2ccc3c(c2)OCCO3)nc2ccccc2c1=O
1,-2.0,C#CCCN1CCN(C(=O)Nc2ccc(F)cc2)CC1
20,2.2,NCCCNc1ccc(C(F)(F)F)cn1
.,1.7,CC(=O)N1C(=O)/C(=C2\SC(=S)N(c3c(C)n(C)n(-c4ccccc4)c3=O)C2=O)c2ccccc21
.,2.1,CCOC(=S)SCc1ccc(C(=O)Oc2ccc(F)cc2F)cc1
-11,-1.9,O=C1c2ccccc2-c2nn(C(=O)C3CCCCC3)c3cccc1c23
9,2.2,COc1ccc(CN=Cc2c(O)[nH]c3ccccc23)cc1OC
-5,-2.9,CCCNC(=O)c1ccccc1NC(=O)c1ccco1
7,-0.5,CC1=CC(C)C2COC(c3ccccc3OCc3ccccc3)C1C2C (stereo not given)
.,-1.0,O=C1/C(=C/c2cccs2)CSc2ccc(F)cc21
-4,.,CS(=O)(=O)c1cccc(C(=O)Nc2ccnn2C2CCCC2)c1
11,.,CCN(CC(=O)NCc1ccc(Cl)cc1)CN1C(=O)C2CC=CCC2C1=O (stereo not given)
.,0.1,COCCCN=C1NC(=O)C(CC(=O)Nc2ccccc2Cl)S1 (stereo not given)
7,-0.9,COC(=O)CNC(=O)c1nn(-c2ccc(OC)cc2OC)c(=O)c2ccccc12
14,-0.7,N=C1SCC(=O)N1c1nc(-c2ccccc2)cs1
7,-3.1,CCOc1ccc(OCC)c(NC(=O)C(NS(=O)(=O)c2cccs2)C(C)C)c1 (stereo not given)
-21,.,NNc1ncc(Cl)cc1C(F)(F)F
-8,7.4,COc1ccccc1C1C(C(=O)c2sc(C)nc2C)=C(O)C(=O)N1CCCN1CCOCC1 (stereo not given)
14,-0.7,CNC(=O)Cc1coc2ccc3ccccc3c12
-3,.,COc1ccc(NC(=O)c2nn(-c3ccccc3)ccc2=O)cc1
-6,.,O=C1CC(c2cccc(Br)c2)n2ncnc2N1 (stereo not given)
.,-0.4,Cc1onc(-c2c(F)cccc2Cl)c1NC(=O)Oc1ccc(CC#N)cc1
9,3.2,CCOc1ccc2ccccc2c1/C=C(\C#N)C(=O)NCc1ccco1
.,-1.1,O=C(NCc1ccncc1)c1cc(C(=O)C2CC2)c[nH]1
3,.,CCOC(=O)N1CCN(CC(O)c2ccc3cc[nH]c3c2)CC1 (stereo not given)
3,-0.9,CCOC(=O)c1cc(CC)sc1NC(=O)C#Cc1ccccc1
-17,.,Cc1nnc(SCC(=O)N2CCCC2)n(N)c1=O
1,0.5,CCCCCCN1C(=O)CSC1c1ccccc1 (stereo not given)
-16,.,O=C(Cc1csc(NC(=O)c2ccco2)n1)NC1CCCCCC1
-6,.,CC(C)(C)c1cc(NC(=O)CSc2nc3ccccc3c(=O)n2-c2ccc(Cl)cc2)on1
12,3.0,COc1ccc(-c2nocc2C#N)cc1
-2,-3.1,O=C(NCC1CCCO1)c1ccccc1NS(=O)(=O)c1cccs1 (stereo not given)
-6,.,CN(Cc1c(F)cccc1Cl)Cn1nnc(-c2ccccc2)n1
-7,.,CC1(C)CC(=O)C=C(NC(=O)Nc2ccc(Cl)cc2)C1

# The listing continues:
S aureus helic,MgrA-DNA mod,molecule
.,4.0,C[C@@H]1C[C@H]2[C@@H]3CCC4=CC(=O)C=C[C@]4(C)[C@@]3(F)[C@@H](O)C[C@]2(C)[C@@]1(O)C(=O)CO
-12,.,CCOC(=O)C1=C(CC)Nc2ccccc2N=C1NC(=O)c1cccc(S(=O)(=O)N2CCCC2)c1
5,-2.6,Cc1ccc(C(=O)NC(C)c2ccncc2)cc1 (stereo not given)
-15,.,Cc1ccc(C)c(Oc2coc3cc(OC(=O)c4ccco4)ccc3c2=O)c1
-21,-0.9,CC(NC(=O)CSC1=NCCS1)c1ccccc1 (stereo not given)
-13,0.8,NC(=O)C(CNS(=O)(=O)c1ccc(Cl)cc1)Sc1ncccn1 (stereo not given)
5,-0.4,Nc1nc(SCC(=O)N2CCc3ccccc32)n[nH]1
8,1.6,Cc1onc(-c2ccccc2Cl)c1C(=O)NC(=S)NCc1ccco1
.,0.9,FC(F)(F)c1nc(SCc2ccc(Cl)cc2Cl)n[nH]1
8,.,N#Cc1ccccc1OCC(=O)OC1CCOC1=O (stereo not given)
13,0.0,O=C(/C=C\c1cn(-c2ccccc2)nc1-c1cccs1)N1CCCCC1
-130,39,Fc1ccc(CN=Cc2cc3ccccc3nc2Cl)cc1
13,4.5,Cc1nn2c3c(cnc2c1-c1ccccc1)C(=O)CC(C)(C)C3
0,.,Cc1ccc(-n2c(C)cc(CC#N)c2C)cc1
7,.,Cc1ccc(-n2c(SCc3ccc(C#N)cc3)nc3ccccc32)cc1
3,.,CC(OC(=O)CSc1nc2ccccc2o1)C(=O)Nc1ncc(Cl)cc1Cl (stereo not given)
12,0.2,COc1ccc(C2=C(C)C(c3cccs3)c3ccccc3O2)cc1 (stereo not given)
.,4.5,Cc1cc2ncc(S(=O)(=O)c3ccc(Cl)cc3)c(C)n2n1
.,0.7,COc1ccc2c(c1)CCc1cn3ncc(C#N)c3nc1-2
2,1.1,Cn1c(-c2ccccc2)nn(CN2CCC(C(N)=O)CC2)c1=S
.,-1.0,Cc1ccc(S(=O)(=O)Cc2ccc(C(F)(F)F)cc2)cc1
6,.,Cc1noc(C)c1COc1ccccc1C(=O)N1CCCc2ccccc21
-1,.,CC(NC(=O)c1ccccc1NC(=O)c1ccco1)C(=O)NN(c1ccccc1)c1ccccc1 (stereo not given)
7,2.2,Nc1cc(-c2ccccc2)n(C(=O)Nc2ccc(Cl)cc2)n1
-15,.,Cc1cc(C)n(CC(=O)N/N=C/c2ccccc2)n1

# A draw from above in order of number of heavy atoms, lowest first.
S aureus helic,MgrA-DNA mod,molecule
-21,-0.9,CC(NC(=O)CSC1=NCCS1)c1ccccc1 (stereo not given)
2,1.1,Cn1c(-c2ccccc2)nn(CN2CCC(C(N)=O)CC2)c1=S
-1,.,CC(NC(=O)c1ccccc1NC(=O)c1ccco1)C(=O)NN(c1ccccc1)c1ccccc1 (stereo not given)

# (cont.)
S aureus helic,MgrA-DNA mod,molecule
12,-3.5,CCc1ccc(OC)c(-c2csc(N)n2)c1
6,0.5,CC(=C/c1ccccc1)/C=N/n1c(C)n[nH]c1=S
.,0.9,COC(=O)C1C(=O)NCC1c1ccc(OC)cc1 (stereo not given)
-202,.,CCOc1ccc(Nc2c3c4c(cccc4[nH]c2=O)C(=O)c2ccccc2-3)cc1
25,1.7,CCC1CCCCN1C(=O)c1cc2ncc(Br)cn2n1 (stereo not given)
-17,4.0,O=C1C2CCCN2C(=S)N1C1CCCCC1 (stereo not given)
.,-7.5,CN(C)C=NC1=C(c2ccccc2)C(=O)c2ccccc21
5,2.5,O=C1OC(c2ccccc2)=C/C1=C/N1CCOCC1
.,0.2,C=CCn1c(=S)sc2c(=O)[nH]c(C)nc21
24,.,CC(C)(C)NC(=O)Cn1c(=O)n(CC(=O)NC(C)(C)C)c2ccccc21
4,1.6,CC(C)c1nc2sc3c(NCC4CCCO4)ncnc3c2c2c1CCCC2 (stereo not given)
6,.,CCOc1ccc(-c2cc(NC(=O)c3noc4c3CCCCC4)on2)cc1OCC
-7,-5.8,O=C(O)CNCC1COc2ccccc2O1 (stereo not given)
-12,.,CC(=O)Nc1ccc(Nc2ncnc3ccc(Br)cc23)cc1
-6,.,CSCc1c(C(=O)Nc2ccc(NC(C)=O)cc2)oc2ccccc12
23,.,O=C(NC1CCN(Cc2ccccc2)CC1)c1cn(-c2ccccc2)nc1-c1cccs1
-85,12,N#CC1=C(N)SC(N)=C(C#N)C1c1cccc(C(F)(F)F)c1
-1,0.6,N#CCSc1nc2c(sc3ccccc32)c(=O)n1CCCN1CCOCC1
-3,11,Cc1cccc(OCCOc2ccc(Br)cc2/C=C2\SC(=S)NC2=O)c1
-21,-1.5,COc1cccc(NC(=O)c2c(Cl)nc3sccn23)c1
10,-1.9,CC(=O)Nc1ccccc1C(=O)N1CC2(C)CC1CC(C)(C)C2 (stereo not given)
-7,.,C/C(N)=C(/C#N)C(=O)CSc1nnc(COc2cc(C)ccc2C)o1
0,0.1,O=S1(=O)CCC(SCc2nnc(-c3ccccc3)o2)C1 (stereo not given)
-4,.,O=c1c(/C=N/O)coc2ccccc12
-13,.,COC(=O)C1CCN(C(=O)c2sc3ccccc3c2Cl)CC1

# Record cards, from the list above:
# CC(C)/C(N)=N/OC(=O)c1ccc(I)cc1 reads S aureus helic: 5; MgrA-DNA mod: -1.9
# Cc1ccc(C)c(Oc2coc3cc(OC(=O)c4ccco4)ccc3c2=O)c1 reads S aureus helic: -15; MgrA-DNA mod: .
# CC(NC(=O)c1ccccc1NC(=O)c1ccco1)C(=O)NN(c1ccccc1)c1ccccc1 (stereo not given) reads S aureus helic: -1; MgrA-DNA mod: .

# Continued:
S aureus helic,MgrA-DNA mod,molecule
6,.,Oc1cccnc1NC(c1ccc(F)cc1)c1ccc2cccnc2c1O (stereo not given)
.,2.7,Cc1onc(-c2c(Cl)cccc2Cl)c1NC(=O)O/N=C/c1ccccn1
12,-1.2,COc1ccc(C2C3(C#N)C(N)=NC4(OCCO4)C23C#N)cc1 (stereo not given)
8,.,COc1ccc(N2CCN(C(=O)CN=C3NS(=O)(=O)C(c4ccc(C)cc4)=C3C)CC2)cc1
.,2.8,CC(=O)Oc1cc(C)c(OC(C)=O)c(C)c1C
13,.,CN1N=C(c2cccs2)CSC1=NCc1ccccc1
